FGF22 binding = binders of recombinant human FGF22 by thermal shift | SYPRO orange fluorescence; percent of sucrose octasulfate shift, DMSO zero | calls only at 9.99 µM | 1.5% of 340,000 active | AID 651658;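 active means melting point raised past a set limit in the mean and every replicate; three in four hits are not shown here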
Ecoli growth = E. coli growth inhibition. Escherichia coli growth, OD600, 23 h; active compounds read low. OD600 absorbance (no concentration beside the values). 0.21% of 330,000 active. AID 1053175;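 active means OD600 absorbance below the run mean of sample wells minus 3.6 SD, in any replicate, cut at about 0.56 in these data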;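 further: stock transfer was 300 nL into about 60 µL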
ALR inh = inhibitors of human sulfhydryl oxidase ALR | 3.8% of 290,000 active | P55789 | inhibition, % (no concentration beside the values) | purified ALR, DTT oxidation, H2O2 HRP-luminol luminescence;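 active means mean and each replicate at 75% or more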;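 further: stock transfer was 7.5 nL into about 7.5 µL; 0% = neutral wells and 100% = wells with inactivated enzyme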
Target sequence (P55789 whole entry, looked up): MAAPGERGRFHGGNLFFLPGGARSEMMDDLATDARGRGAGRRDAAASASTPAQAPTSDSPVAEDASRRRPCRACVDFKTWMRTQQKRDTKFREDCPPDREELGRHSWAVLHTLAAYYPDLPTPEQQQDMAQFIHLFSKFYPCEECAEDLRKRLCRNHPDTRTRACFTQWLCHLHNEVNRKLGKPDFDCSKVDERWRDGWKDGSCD
B2AR ag = agonists of human beta-2 adrenergic receptor inducing internalization | P07550 | Am2.2-beta2AR cells, FAP receptor internalization, flow cytometry; reference of the scale not given here | response, % (concentration not given with the values) | 0.43% of 340,000 active;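 active means response above a set limit, near 3 SD of response in nonfluorescent compounds, cut at about 42% in these data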;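 further: stock transfer was 100 nL into about 11 µL; a reference agonist was the positive control; negative values mostly stem from fluorescent compounds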
UCH37 inh = blocks the human deubiquitinase UCH37. Q9Y5K5. purified proteasome/UCH37, Ub-AMC cleavage fluorescence. inhibition, % (no concentration beside the values). 0.33% of 330,000 active;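 active means mean of two replicates above 20%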;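 further: 0% = compound-free wells with enzyme and 100% = wells lacking proteasome; stock transfer was 100 nL into about 20 µL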
Target sequence (Q9Y5K5 whole entry, looked up): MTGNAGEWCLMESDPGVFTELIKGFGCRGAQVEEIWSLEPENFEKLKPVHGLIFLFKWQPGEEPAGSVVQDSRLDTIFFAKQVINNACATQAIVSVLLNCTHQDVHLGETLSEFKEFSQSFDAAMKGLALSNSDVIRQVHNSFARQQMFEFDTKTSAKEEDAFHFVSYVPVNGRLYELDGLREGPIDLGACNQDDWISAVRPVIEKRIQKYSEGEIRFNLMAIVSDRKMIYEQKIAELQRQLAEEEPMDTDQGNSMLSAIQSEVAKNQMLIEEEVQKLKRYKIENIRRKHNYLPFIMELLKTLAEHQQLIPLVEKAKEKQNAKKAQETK
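Material: human UCH37 enzyme supplied as purified proteasome complex. Measure: % inhibition of Ub-AMC cleavage fluorescence. Medium: pH 7.4 Tris-HCl (50 mM) with ovalbumin, ATP-MgCl2, DTT. Times: 30 min preincubation with enzyme, 25 min cleavage at room temperature. Detection: AMC fluorescence intensity at 355/460 nm.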
LANA-H2B inh = blocks KSHV LANA binding to histone H2A/H2B; AID 2629; 0.6% of 320,000 active; Q9QR71; cell-free LANA-H2A/H2B peptide, fluorescence polarization; inhibition, % (concentration not given with the values); in the data active means inhibition mostly above about 10%, no sharp cut-off; inactive means mostly below about 6.7%;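 further: stock transfer was 7.5 nL into about 10 µL; 0% = median of vehicle wells and 100% = median of positive control wells; one replicate is shown; the record names a cut of 25% in any replicate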
HNF4A DNA FP = change in binding of human HNF4 alpha to DNA; HNF4a-FITC DNA binding, fluorescence polarization, 1 h; AID 1224865; 0.3% of 360,000 active; activity change, % at 10 µM; P41235; in the data active means activity change above about 30%, passing the limit was not always enough;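 further: controls were the assay level and a saturating level of protein; the project sought stronger binding though the title names inhibitors; some compounds called inactive have numbers as strong as hits; positive values seem to mean higher polarization but the record does not say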
Target sequence (P41235 whole entry, looked up): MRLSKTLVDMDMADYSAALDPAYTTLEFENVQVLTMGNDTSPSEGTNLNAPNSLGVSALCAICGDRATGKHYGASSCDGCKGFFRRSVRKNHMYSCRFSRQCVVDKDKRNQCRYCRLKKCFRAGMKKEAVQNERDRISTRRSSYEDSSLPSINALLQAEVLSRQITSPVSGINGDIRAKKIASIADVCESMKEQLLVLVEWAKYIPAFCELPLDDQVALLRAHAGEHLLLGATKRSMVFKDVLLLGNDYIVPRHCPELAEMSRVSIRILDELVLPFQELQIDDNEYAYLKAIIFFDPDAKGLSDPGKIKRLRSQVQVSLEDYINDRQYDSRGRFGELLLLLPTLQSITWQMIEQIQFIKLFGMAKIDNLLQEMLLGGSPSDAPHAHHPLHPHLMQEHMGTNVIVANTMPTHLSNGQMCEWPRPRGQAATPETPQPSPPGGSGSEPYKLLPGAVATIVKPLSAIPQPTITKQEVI
An asterisk follows results filed as active. This is a subset, so the mix of outcomes need not match the whole.

What do the screens show for `O=C(Nc1ccc(N2CCN(C(=O)c3ccco3)CC2)cc1)c1cccnc1Cl`?
FGF22 binding: inactive; Ecoli growth: 0.68; ALR inh: 5; B2AR ag: 1; UCH37 inh: 3.0; LANA-H2B inh: -2.7; HNF4A DNA FP: 2.0

What do the screens show for `Cc1oc(-c2ccccc2)cc1C(N)=O`?
Ecoli growth: 0.67; ALR inh: 8; B2AR ag: 4; UCH37 inh: 4.3; LANA-H2B inh: 5.9; HNF4A DNA FP: 2.1

What do the screens show for `Cc1sc2nc(C3CC3)nc(SCC(=O)N3CC(=O)Nc4ccccc43)c2c1C`?
Ecoli growth: 0.72; ALR inh: -25; B2AR ag: 4; UCH37 inh: 2.3; LANA-H2B inh: 0.9; HNF4A DNA FP: 6.5

What do the screens show for `Cc1noc(C)c1S(=O)(=O)N1CCC(C(=O)O)CC1`?
FGF22 binding: inactive; Ecoli growth: 0.69; ALR inh: -1; B2AR ag: 1; UCH37 inh: -0.1; LANA-H2B inh: -0.2; HNF4A DNA FP: -0.9

What do the screens show for `O=C1C(=O)N(CCN2CCOCC2)C(c2ccc([N+](=O)[O-])cc2)/C1=C(/O)c1ccc2c(c1)OCO2` (centres undefined)?
FGF22 binding: inactive; Ecoli growth: 0.69; ALR inh: 38; B2AR ag: 10; UCH37 inh: 11; LANA-H2B inh: -4.6; HNF4A DNA FP: 1.9

Results for Cc1cccc(NC(=O)CSCc2cc(=O)n3nc(C4CC4)sc3n2)c1 ?
FGF22 binding: inactive; Ecoli growth: 0.71; ALR inh: 98*; B2AR ag: 1; UCH37 inh: 5.8; LANA-H2B inh: 6.1; HNF4A DNA FP: -0.2

How did CC(=O)c1ccc(OCC(O)CN2CCC(C)CC2)cc1 (centres undefined) do in these assays?
FGF22 binding: inactive; Ecoli growth: 0.77; ALR inh: -75; B2AR ag: 4; UCH37 inh: 3.3; LANA-H2B inh: -1.6; HNF4A DNA FP: 2.4

What do the screens show for `CCc1cc(=O)oc2c3c(cc(OCC(=O)NCCN4CCOCC4)c12)OC(C)(C)CC3`?
FGF22 binding: inactive; Ecoli growth: 0.7; ALR inh: 0; B2AR ag: -10; UCH37 inh: inactive; LANA-H2B inh: 3.4; HNF4A DNA FP: 3.1

What do the screens show for `O=[N+]([O-])c1ccc(N2CCN(c3ccc([N+](=O)[O-])cc3CO)CC2)c(CO)c1`?
FGF22 binding: inactive; Ecoli growth: 0.69; ALR inh: -8; B2AR ag: 12; UCH37 inh: 1.1; LANA-H2B inh: -1.8; HNF4A DNA FP: 0.0

What do the screens show for `O=C(CSc1nccc(=O)[nH]1)N1CCN(c2ccccc2)CC1`?
FGF22 binding: inactive; Ecoli growth: 0.68; ALR inh: 92*; B2AR ag: -10; UCH37 inh: 0.3; LANA-H2B inh: -0.7; HNF4A DNA FP: -7.2

Results for CC(C)Oc1c(Cl)cc(CNC(C)(C)CO)cc1Cl ?
Ecoli growth: 0.69; ALR inh: -1; B2AR ag: -1; UCH37 inh: 3.3; LANA-H2B inh: 0.0; HNF4A DNA FP: 0.7

What do the screens show for `O=C(/C=C/Nc1ccc(Oc2ccccc2)cc1)c1ccco1`?
FGF22 binding: inactive; Ecoli growth: 0.69; ALR inh: 2; B2AR ag: 1; UCH37 inh: -5.3; LANA-H2B inh: -3.2; HNF4A DNA FP: -4.7

How did COc1ccc(CNC(=O)Cn2c(=O)n(CCC(=O)N3CCCCC3)c(=O)c3sccc32)cc1 do in these assays?
FGF22 binding: inactive; Ecoli growth: 0.73; ALR inh: -1; B2AR ag: -5; UCH37 inh: 0.2; LANA-H2B inh: 1.6; HNF4A DNA FP: 1.2

What do the screens show for `CCC(=O)Nc1ccccc1C(=O)C(=O)Nc1ccccc1`?
FGF22 binding: inactive; Ecoli growth: 0.67; ALR inh: 0; B2AR ag: -3; UCH37 inh: 1.5; LANA-H2B inh: -2.7; HNF4A DNA FP: 1.8

What do the screens show for `Cc1cc(=O)n2[nH]nnc2n1`?
FGF22 binding: inactive; Ecoli growth: 0.69; B2AR ag: -4; UCH37 inh: 4.1; LANA-H2B inh: 1.0; HNF4A DNA FP: 0.3

What do the screens show for `CS(=O)(=O)c1ccc2nc(NC(=O)c3ccc(Cn4cc(Br)cn4)o3)sc2c1`?
FGF22 binding: inactive; Ecoli growth: 0.7; ALR inh: 8; B2AR ag: 6; UCH37 inh: -33; LANA-H2B inh: -0.9; HNF4A DNA FP: -0.3

Results for Cc1ccc(CNC(=O)COC(=O)Cc2ccc(-c3ccccc3)cc2)cc1 ?
Ecoli growth: 0.73; ALR inh: -4; B2AR ag: 2; UCH37 inh: -1.2; LANA-H2B inh: -2.7; HNF4A DNA FP: 1.1

How did CCn1c(NCc2cccs2)nc2ccccc21 do in these assays?
Ecoli growth: 0.68; ALR inh: 18; B2AR ag: 1; UCH37 inh: -1.3; LANA-H2B inh: -1.7; HNF4A DNA FP: 1.9

What do the screens show for `COc1cc(CN2CCNC(=O)C2CC(=O)N(C)Cc2cccnc2)cc(OC)c1` (centres undefined)?
Ecoli growth: 0.71; ALR inh: -19; B2AR ag: -3; UCH37 inh: 1.3; LANA-H2B inh: 3.7; HNF4A DNA FP: 1.9

Results for CC(C)C[C@H](NC(=O)C1CC(=O)N(c2ccc3c(c2)OCO3)C1)C(=O)NC1CCCC1 (some centres undefined) ?
FGF22 binding: inactive; ALR inh: -7; B2AR ag: 2; LANA-H2B inh: 2.8; HNF4A DNA FP: -8.9

Results for Cc1nn(C(=O)CCCC(=O)NCc2ccccc2)c2ccccc12 ?
FGF22 binding: inactive; Ecoli growth: 0.69; ALR inh: -35; B2AR ag: -1; UCH37 inh: -0.6; LANA-H2B inh: -7.1; HNF4A DNA FP: 1.7

How did Cc1ccc(N2CC(C(=O)Nc3ccccc3C(=O)NC3CCCCC3)CC2=O)cc1C (centres undefined) do in these assays?
Ecoli growth: 0.65; ALR inh: -14; B2AR ag: -7; UCH37 inh: 5.3; LANA-H2B inh: -2.6; HNF4A DNA FP: 3.5

What do the screens show for `O=C(CCS(=O)(=O)c1ccc(F)cc1)Nc1nc(-c2ccccn2)cs1`?
FGF22 binding: inactive; Ecoli growth: 0.66; ALR inh: 1; B2AR ag: -5; UCH37 inh: 1.5; LANA-H2B inh: 0.5; HNF4A DNA FP: -1.2

How did CCc1ccc(NC(=O)CSc2nc3n[nH]c(C)c3c(=N)n2-c2cccc(OC)c2)cc1 do in these assays?
Ecoli growth: 0.66; ALR inh: -14; B2AR ag: -25; UCH37 inh: -3.1; LANA-H2B inh: 3.2; HNF4A DNA FP: 5.6

How did COc1ccc(Br)cc1/C=N/Nc1cccc(C(=O)O)c1 do in these assays?
FGF22 binding: inactive; B2AR ag: 4; LANA-H2B inh: -3.6; HNF4A DNA FP: -0.4

Results for C=CCOc1c(CCC)cc(CCC)cc1C(N)=O ?
FGF22 binding: inactive; Ecoli growth: 0.66; ALR inh: 1; B2AR ag: -1; UCH37 inh: 1.3; LANA-H2B inh: 1.8; HNF4A DNA FP: -3.2

What do the screens show for `O=C(CCNS(=O)(=O)c1cccc2nonc12)NC1CCCCCC1`?
FGF22 binding: inactive; Ecoli growth: 0.65; ALR inh: -1; B2AR ag: -6; UCH37 inh: 2.0; LANA-H2B inh: -1.9; HNF4A DNA FP: 0.8

What do the screens show for `O=C(C1CCN(c2nnc(-n3cccc3)s2)CC1)N1CCN(Cc2ccc3c(c2)OCO3)CC1`?
FGF22 binding: inactive; Ecoli growth: 0.75; ALR inh: -13; B2AR ag: -10; UCH37 inh: 2.5; LANA-H2B inh: 6.8; HNF4A DNA FP: -0.3

Results for COc1ccc(NC(=O)CCC(=O)N(Cc2ccc(OC)c(OC)c2)c2nccs2)cc1 ?
Ecoli growth: 0.68; ALR inh: -2; B2AR ag: -2; UCH37 inh: -1.7; LANA-H2B inh: 1.6; HNF4A DNA FP: 2.2

What do the screens show for `c1ccc(-c2c[nH]c3[n+]2CCCCC3)cc1`?
Ecoli growth: 0.72; ALR inh: 2; B2AR ag: 0; UCH37 inh: 2.3; LANA-H2B inh: 0.5; HNF4A DNA FP: 0.6

Results for CCSc1nnc(NC(=O)CSc2nccn2-c2cccc(C)c2)s1 ?
Ecoli growth: 0.77; ALR inh: -4; B2AR ag: -19; UCH37 inh: 0.2; LANA-H2B inh: 1.1; HNF4A DNA FP: 0.2

How did NNC(=O)CN(CCc1ccccc1)S(=O)(=O)c1ccc(Cl)cc1 do in these assays?
Ecoli growth: 0.67; ALR inh: -3; B2AR ag: -9; UCH37 inh: 0.7; LANA-H2B inh: -7.8; HNF4A DNA FP: 1.6

Results for COc1cccc(NC(=S)NC(=O)/C=C/c2ccco2)c1 ?
FGF22 binding: inactive; Ecoli growth: 0.61; ALR inh: 1; B2AR ag: 7; UCH37 inh: 3.1; LANA-H2B inh: -0.5; HNF4A DNA FP: 9.9

How did CCn1c(-c2ccc(C(C)(C)C)cc2)n[nH]c1=S do in these assays?
Ecoli growth: 0.76; ALR inh: -5; B2AR ag: -6; UCH37 inh: 6.1; LANA-H2B inh: 3.5; HNF4A DNA FP: 1.3

Results for COC(=O)C1=C(C(=O)OC)[C@@H]2N(Cc3ccccc3)c3ccccc3[C@@]23C[C@@H](C(=O)OC)N=C3N1 ?
FGF22 binding: inactive; ALR inh: -13; B2AR ag: -1; UCH37 inh: 1.4; LANA-H2B inh: -1.9; HNF4A DNA FP: -0.6

How did Cc1cc(C)cc(NC(=O)Cn2ncn3c(cc4ccccc43)c2=O)c1 do in these assays?
FGF22 binding: inactive; Ecoli growth: 0.65; ALR inh: -8; B2AR ag: 2; UCH37 inh: -9.1; LANA-H2B inh: -1.4; HNF4A DNA FP: 4.4

What do the screens show for `CCNC(=O)Cn1cc(C#N)c2ccccc21`?
Ecoli growth: 0.7; ALR inh: -21; B2AR ag: 2; UCH37 inh: 1.5; LANA-H2B inh: 0.5; HNF4A DNA FP: 0.7

Results for Cc1ccc(NC(=O)COC(=O)C2CC2C)c(S(=O)(=O)N2CCCCC2)c1 (centres undefined) ?
Ecoli growth: 0.73; ALR inh: -25; B2AR ag: -2; UCH37 inh: 3.9; LANA-H2B inh: -2.2; HNF4A DNA FP: -1.2

Results for COc1ccc2nc(C)cc(Nc3ccc(N4CCOCC4)cc3)c2c1 ?
Ecoli growth: 0.69; ALR inh: 16; B2AR ag: -1; UCH37 inh: 12; LANA-H2B inh: -4.0; HNF4A DNA FP: -2.9

How did O=C(CSc1nc2ccccc2o1)Nc1cc(C(F)(F)F)ccc1N1CCOCC1 do in these assays?
Ecoli growth: 0.75; ALR inh: -12; B2AR ag: -25; UCH37 inh: 3.4; LANA-H2B inh: 2.1; HNF4A DNA FP: -0.6

What do the screens show for `c1cncc(-c2nc(NCc3ccco3)c3ccccc3n2)c1`?
Ecoli growth: 0.7; ALR inh: 50; B2AR ag: -9; UCH37 inh: 1.9; LANA-H2B inh: -2.0; HNF4A DNA FP: -0.8

How did CC(CCCCCCCCC(=O)O)N(CCO)C(=O)OC(C)(C)C (centres undefined) do in these assays?
FGF22 binding: inactive; Ecoli growth: 0.76; ALR inh: -2; B2AR ag: -5; UCH37 inh: 3.1; LANA-H2B inh: -11; HNF4A DNA FP: -3.3

How did CCNC(=S)SCCOc1ccc(C)cc1 do in these assays?
Ecoli growth: 0.71; ALR inh: -4; B2AR ag: -1; UCH37 inh: 6.7; LANA-H2B inh: 0.4; HNF4A DNA FP: -2.1

3 entries out of the list, arranged by SMILES length, ascending.
Results for COc1ccc2nc(C)cc(Nc3ccc(N4CCOCC4)cc3)c2c1 ?
Ecoli growth: 0.69; ALR inh: 16; B2AR ag: -1; UCH37 inh: 12; LANA-H2B inh: -4.0; HNF4A DNA FP: -2.9

How did NNC(=O)CN(CCc1ccccc1)S(=O)(=O)c1ccc(Cl)cc1 do in these assays?
Ecoli growth: 0.67; ALR inh: -3; B2AR ag: -9; UCH37 inh: 0.7; LANA-H2B inh: -7.8; HNF4A DNA FP: 1.6

Results for COC(=O)C1=C(C(=O)OC)[C@@H]2N(Cc3ccccc3)c3ccccc3[C@@]23C[C@@H](C(=O)OC)N=C3N1 ?
FGF22 binding: inactive; ALR inh: -13; B2AR ag: -1; UCH37 inh: 1.4; LANA-H2B inh: -1.9; HNF4A DNA FP: -0.6

Compound activity from PubChem BioAssay.
